RGS16-Gao HTS: RGS16-Galphao interaction regulator (human); actives 0.38% (n = 220,000); binding response (% of control), % at 10 µM; bead-based flow cytometry RGS16-Galphao binding, fluorescence; actives lie on both sides; O15492+P09471;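 active means below 25% or above 175%, edge rows of some plates excepted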;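 further: Galphao activated by GDP with aluminum fluoride before binding; 100% = wells without compound and 0% = beads without RGS; some results beyond the cut were filed as inactive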
Target sequence (O15492 whole entry, looked up): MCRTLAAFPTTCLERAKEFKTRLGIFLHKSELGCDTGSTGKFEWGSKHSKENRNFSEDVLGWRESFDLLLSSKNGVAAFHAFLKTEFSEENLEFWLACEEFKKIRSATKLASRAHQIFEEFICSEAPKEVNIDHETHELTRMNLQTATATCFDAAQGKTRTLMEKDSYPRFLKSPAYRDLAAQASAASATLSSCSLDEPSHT
Target sequence (P09471 whole entry, looked up): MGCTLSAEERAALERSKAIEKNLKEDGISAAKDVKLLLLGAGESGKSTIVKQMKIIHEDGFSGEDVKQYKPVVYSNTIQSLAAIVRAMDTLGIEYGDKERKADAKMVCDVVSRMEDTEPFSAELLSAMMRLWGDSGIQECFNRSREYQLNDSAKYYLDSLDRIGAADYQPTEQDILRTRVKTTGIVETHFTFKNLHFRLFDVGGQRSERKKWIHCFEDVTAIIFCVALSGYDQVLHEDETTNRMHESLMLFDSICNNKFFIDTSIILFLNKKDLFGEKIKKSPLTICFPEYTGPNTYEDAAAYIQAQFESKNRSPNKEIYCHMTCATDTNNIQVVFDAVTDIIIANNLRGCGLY
GALR2 agonist: activates the human galanin receptor 2. O43603. GALR2-expressing cells, agonist activation read-out. activation, %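 (tested at 5 µM)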. actives 0.48% (n = 140,000);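 active means above mean plus 3 SD of all compounds, about 5% in these data, not always enough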;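 further: 0% = vehicle buffer wells and 100% = reference agonist at full effect; tested in CHO reporter cells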
Target sequence (O43603 whole entry, looked up): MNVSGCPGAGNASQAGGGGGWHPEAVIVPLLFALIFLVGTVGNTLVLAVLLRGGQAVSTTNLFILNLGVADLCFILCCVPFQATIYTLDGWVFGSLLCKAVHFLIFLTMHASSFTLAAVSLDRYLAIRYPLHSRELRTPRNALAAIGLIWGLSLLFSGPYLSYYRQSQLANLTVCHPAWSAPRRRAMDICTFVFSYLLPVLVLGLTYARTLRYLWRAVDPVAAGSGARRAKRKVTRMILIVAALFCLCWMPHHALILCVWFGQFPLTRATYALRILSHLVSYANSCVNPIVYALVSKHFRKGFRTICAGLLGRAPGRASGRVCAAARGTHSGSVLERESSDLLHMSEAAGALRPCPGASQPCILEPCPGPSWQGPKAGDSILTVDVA
PKD1 inh: blocks activity of human protein kinase D1 | PKD1 kinase fluorescence polarization assay | actives 0.056% (n = 200,000) | Q15139 | AID 797 | inhibition, %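 (about 10 µM by stock and volumes)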;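 active means inhibition of 50% or more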;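 further: controls were vehicle for no effect and a reference inhibitor for full effect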
INS promoter inh: TRM-6 insulin promoter activity inhibition | TRM-6 cells (human fetal islet line), insulin promoter-eGFP reporter, imaging; reporter expression induced with tamoxifen | inhibition, % at 2 µM | actives 0.9% (n = 130,000) | AID 1273;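 active means inhibition above the mean plus 3 SD, with well images judged a real hit on visual review, cut at about 60% in these data, passing the limit was not always enough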
HSV augment: increases HSV replication in cells | HSV replication augmentation in cells, fold increase | maximum fold increase | actives 0.005% (n = 220,000);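 active means peak rise of 1.5-fold or more in the series; tested in PC3 cells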;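 further: first round at 10 µM; read as green reporter fluorescence; hits show the peak of a series up to 25 µM; 1 = signal of infected wells without compound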
INS promoter inh cell count: second read-out of INS promoter inh, no call of its own (marks repeat the call); normalized cell count, %; measured here: cell count, toxicity; reference of the scale not given here;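 cells exposed to compound for 48 h; stained nuclei by imaging scaled within each plate; lower means fewer cells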
HSV augment primary fold: further read-out of HSV augment, marked with its call; fold increase; compound at 10 µM; measured here: primary screen fold increase 10 uM; tested in PC3 cells;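 GFP signal in the first replicate; 1 = infected wells without compound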
An asterisk follows results filed as active; i = inactive; nt = no result given.

SMILES	RGS16-Gao HTS	GALR2 agonist	PKD1 inh	INS promoter inh	INS promoter inh cell count	HSV augment	HSV augment primary fold
O=C(c1cccnc1)N1CCN(S(=O)(=O)c2ccc(S(=O)(=O)N3CCCC3)cc2)CC1	102	-2.6	1	-7	130	i	1.1
Cc1ccccc1NC(=O)C(=O)c1cn(C)c2ccccc12	101	nt	-1	nt	nt	i	0.85
Cc1cc(C(=O)NC(C)c2ccccc2)c2cc(F)ccc2n1 (centres undefined)	100	nt	-3	nt	nt	i	0.87
Cc1ccc(NC(=O)CCC(=O)NNC(=O)c2cccs2)cc1C	91	-2.4	-5	9	123	i	1.1
COc1ccc(N2CCN(C(=O)c3ccc(OCC4CCCO4)cc3)CC2)cc1 (centres undefined)	97	-3.0	-19	64	105	i	0.81
COc1ccccc1/C=c1\sc2nc(-c3cccs3)nn2c1=O	nt	-1.0	-5	18	72	nt	nt
CCN(CC)c1ccc(CNc2nc3ccccc3n2C(C)C)cc1	99	nt	nt	nt	nt	i	1.1
O=C(NCc1cccs1)C1CC(=O)N(c2ccc(F)cc2)C1 (centres undefined)	94	-0.9	-7	nt	nt	i	1.2
CCCc1nc2sc3c(c2c(=O)[nH]1)CCCC3	108	nt	0	nt	nt	i	1
CC(C)NC(=S)N/N=C/c1ccccc1[N+](=O)[O-]	101	nt	-8	-83	162	i	0.86
CCOC(=O)c1nc(C)nc(Sc2n[nH]c(-c3cc(C(F)(F)F)cc(C(F)(F)F)c3)n2)c1C	103	nt	nt	nt	nt	i	0.94
O=C(Nc1c2c(nn1-c1ccccc1)CSC2)c1ccc(N2C(=O)CCC2=O)cc1	102	nt	-8	67	145	i	0.91
O=c1cc(N2CCN(c3ccccc3F)CC2)[nH]c(=O)n1-c1ccc(Br)cc1	95	-3.2	-4	nt	nt	i	0.94
CC1=C(C(=O)Nc2ccc(C)cc2C)C(c2ccc(Cl)cc2)n2nc(C(=O)OC(C)C)nc2N1 (centres undefined)	102	-0.2	0	20	165	i	0.83
Cc1ccc(SCC(=O)N2N=CCC2c2ccccc2)cc1 (centres undefined)	103	nt	1	5	121	i	0.96
COc1ccccc1OCC(O)Cn1c(=N)n(Cc2ccccc2)c2ccccc21 (centres undefined)	104	-2.3	1	-278	69	i	0.88
Cc1[nH]nc2c1C(c1cccnc1)N(c1ccc(Br)cc1)C2=O (centres undefined)	103	-1.0	-6	14	72	i	1.1
Nc1nc(SCc2ccccc2)[nH]c(=O)c1-c1ccccc1	100	-1.9	-2	nt	nt	i	1.1
CC(NC(=O)Cc1ccc(-c2ccccc2)cc1)c1ccccc1 (centres undefined)	222	-0.4	-5	49	99	i	0.88
Cn1cc(/C=C2\SC(=S)N(NC(=O)c3ccccc3Cl)C2=O)c2ccccc21	107	-0.4	-3	16	119	nt	nt
COc1ccccc1/C=C/C=N/n1c(-c2ccco2)n[nH]c1=S	101	nt	nt	nt	nt	i	0.97
COc1cc(/C=N/NC(N)=O)ccc1OCC(=O)N1C(C)CCCC1C (centres undefined)	104	nt	-2	14	91	i	0.8
CC1CCN(S(=O)(=O)c2ccc3[nH]c(=O)c(=O)[nH]c3c2)CC1	102	-2.3	-3	32	71	i	1
CC(C)(C)c1ccc(-c2nc(C#N)c(NCCCn3ccnc3)o2)cc1	97	nt	nt	nt	nt	i	0.75
Cc1nc2ccc(NC(=O)Cc3ccsc3)cc2s1	99	-0.2	0	-23	119	i	1

Three entries from above, sorted by SMILES length, ascending.
SMILES	RGS16-Gao HTS	GALR2 agonist	PKD1 inh	INS promoter inh	INS promoter inh cell count	HSV augment	HSV augment primary fold
CCCc1nc2sc3c(c2c(=O)[nH]1)CCCC3	108	nt	0	nt	nt	i	1
COc1ccccc1/C=c1\sc2nc(-c3cccs3)nn2c1=O	nt	-1.0	-5	18	72	nt	nt
Cc1ccc(NC(=O)CCC(=O)NNC(=O)c2cccs2)cc1C	91	-2.4	-5	9	123	i	1.1

(further entries)
SMILES	RGS16-Gao HTS	GALR2 agonist	PKD1 inh	INS promoter inh	INS promoter inh cell count	HSV augment	HSV augment primary fold
Cc1ccc(C)c(-n2cc(CNCCc3cnccn3)c(-c3ccccc3)n2)c1	102	nt	5	nt	nt	i	1
COc1cccc(-n2nnnc2S(C)(=O)=O)c1	103	-3.3	-5	54	130	i	0.55
CCOc1cccc(CNCc2ccc(C(=O)O)cc2)c1	98	nt	-5	-36	48	i	1
COc1ccccc1-c1ccc(=O)n(CC(=O)NCc2cccs2)n1	108	nt	-1	-38	146	i	0.95
O=C(CSc1nnc(-c2ccccn2)n1Cc1ccccc1)Nc1ccc2c(c1)OCO2	102	-1.6	26	8	105	i	0.97
O=C(Nc1ccccc1C(=O)N1CCN(c2ccccc2)CC1)c1ccco1	107	-3.5	-2	-23	117	i	0.88
Cc1cc2nc(-c3ccc(SCc4ccccn4)nc3)[nH]c2cc1C	103	nt	-5	17	84	i	0.86
CCn1cc([N+](=O)[O-])c(C(=O)N2CCN(C(=O)c3ccco3)CC2)n1	65	-2.2	9	6	132	i	1
CNC(=S)N(CCc1c(C)[nH]c2ccc(C)cc12)Cc1cccs1	108	nt	-3	-82	174	i	0.82
O=C1CC(C(=O)Nc2cc(Cl)ccc2Cl)n2ncnc2N1 (centres undefined)	101	nt	-4	nt	nt	i	1
COC(=O)c1cccc([N+](=O)[O-])c1CN1CCCC(C(N)=O)C1 (centres undefined)	110	nt	-3	11	120	i	0.93
CC1CC(C)CN(c2nc3c(c(=O)n(C)c(=O)n3C)n2C)C1 (centres undefined)	98	-1.8	-11	-62	73	i	0.74
O=S(=O)(c1ccccc1)N1CCN(Cc2cccc(Cl)c2)CC1	101	-0.3	3	22	167	i	0.91
O=C(CN(c1ccc2c(c1)OCCO2)S(=O)(=O)c1ccccc1)Nc1ccc2c(c1)OCO2	98	0.1	-8	-7	92	i	1.4
O=C(NNC(=O)c1ccc([N+](=O)[O-])cc1Cl)c1ccncc1	100	0.5	2	8	150	i	0.94
CCn1c(SCC(=O)Nc2ccc3c(c2)OCO3)nc2c1c(=O)n(C)c(=O)n2C	121	-0.2	17	-15	94	i	1
O=C(NN1C(=O)C2C3c4ccccc4C(c4ccccc43)C2C1=O)c1ccccc1 (centres undefined)	103	-1.2	0	-11	84	i	0.99
CC(=O)Nc1ccc(NC(=O)COC(=O)C2c3ccccc3Oc3ccccc32)cc1	103	nt	-3	29	38	i	0.88
COc1ccc(N(C(=O)C(C)C)S(=O)(=O)c2ccc(Cl)cc2)cc1	99	-3.3	-3	-3	109	i	1
Cc1nnc(N/N=C/c2ccc(O)c([N+](=O)[O-])c2)[nH]c1=O	111	-1.5	13	14	86	i	0.98
COc1cccc(/C=C/C(=O)Nc2ccc3nc4n(c(=O)c3c2)CCCC4)c1OC	103	nt	-1	nt	nt	i	0.92
CCOC(=O)c1sc(NC(=O)CSc2nc(-c3ccco3)cc(C(F)(F)F)n2)c(C#N)c1C	118	-3.0	-13	26	65	i	0.9
FC(F)(F)c1nnc(-c2ccccc2)nc1Sc1ccccc1	95	-0.7	-15	-30	64	i	0.92
COc1ccc(CNc2nc3nc(-c4ccccc4)cc(=O)n3[nH]2)cc1OC	80	-0.5	-5	44	118	i	0.84
CCOC(=O)CN=C/C(C(=O)Nc1nccs1)=C(/C)O	100	nt	0	nt	nt	i	0.9

The list goes on.
SMILES	RGS16-Gao HTS	GALR2 agonist	PKD1 inh	INS promoter inh	INS promoter inh cell count	HSV augment	HSV augment primary fold
O=C(O)c1ccc(Cl)c(S(=O)(=O)Nc2cccc(C(=O)Nc3cccc(C(F)(F)F)c3)c2)c1	93	nt	-8	28	98	i	0.85
CCS(=O)(=O)Nc1ccc2c(c1)N(C(C)=O)c1ccccc1CC2	97	-1.5	-4	-29	126	i	1
CNCc1c(OCc2ccccc2F)ccc2ccccc12	100	nt	-3	-11	89	i	0.92
COc1ccccc1-n1c(SCC(=O)N2CCCC2)nc2cccnc21	92	-1.6	2	56	85	i	1
Cc1c(Cc2ccccc2)sc(NC(=O)Cc2ccccc2)c1C(N)=O	nt	-0.4	4	-5	70	i	0.94
O=C1CC(N2CCC(C(=O)N3CCCCC3)CC2)C(=O)N1 (centres undefined)	101	-2.5	-4	-56	93	i	0.92
CCNc1ccc(S(=O)(=O)N(C)C)cc1NCC(=O)Nc1ccccc1F	112	-1.0	6	-18	107	i	0.86
CC(=O)c1csc(Nc2ccccc2Cl)n1	99	nt	nt	nt	nt	i	1.1
COc1ccc(-c2nc(CS(=O)(=O)CC(=O)Nc3ccc(Cl)cc3)c(C)o2)cc1	80	-0.6	-2	nt	nt	i	0.78
Cc1ccc(CN2CCC(CO)(CC3CCCCO3)CC2)o1 (centres undefined)	87	nt	-5	nt	nt	i	1
O=C(c1cccc(F)c1)N(Cc1nc2ccccc2c(=O)[nH]1)C1CCCC1	104	nt	1	nt	nt	i	0.98
CCSc1nnc(NC(=O)C2CC=CCC2C(=O)O)s1 (centres undefined)	91	-0.3	6	46	193	i	1
O=C(Nc1cccc(F)c1)c1ccc(CSc2ccccc2)o1	103	0.2	3	-20	82	i	0.98
Cc1ccc(CSc2nnc(C)c(=O)[nH]2)cc1	94	nt	-6	nt	nt	i	1.1
Cc1oc(-c2ccccc2)nc1C(=O)OCC(=O)NC(=O)NCC(C)C	103	-1.4	-15	nt	nt	i	0.97
O=C(c1cccc(S(=O)(=O)NCCOc2ccccc2)c1)N1CCN(c2ncccn2)CC1	101	-3.3	-11	-28	112	i	0.93
NC(=O)Cn1c(S(=O)(=O)Cc2ccccc2)nc2ccccc21	nt	-3.6	-7	-52	128	i	0.81
COc1ccc(NC(=O)CN(c2ccc(C)cc2)S(C)(=O)=O)c(OC)c1	97	-1.4	0	-32	137	i	0.98
CCC(C)(c1nnnn1-c1c(C)cccc1C)N(N=O)c1ccccc1Cl (centres undefined)	106	-1.1	-1	nt	nt	i	1.1
CC(C)[C@H](CO)Nc1nc(Nc2ccc(Cl)c(C(=O)O)c2)c2ncn(C(C)C)c2n1	105	nt	nt	nt	nt	i	1.1

Structures listed so far with an aryl methoxy group:
SMILES	RGS16-Gao HTS	GALR2 agonist	PKD1 inh	INS promoter inh	INS promoter inh cell count	HSV augment	HSV augment primary fold
COc1ccc(N2CCN(C(=O)c3ccc(OCC4CCCO4)cc3)CC2)cc1 (centres undefined)	97	-3.0	-19	64	105	i	0.81
COc1ccccc1/C=c1\sc2nc(-c3cccs3)nn2c1=O	nt	-1.0	-5	18	72	nt	nt
COc1ccccc1OCC(O)Cn1c(=N)n(Cc2ccccc2)c2ccccc21 (centres undefined)	104	-2.3	1	-278	69	i	0.88
COc1ccccc1/C=C/C=N/n1c(-c2ccco2)n[nH]c1=S	101	nt	nt	nt	nt	i	0.97
COc1cc(/C=N/NC(N)=O)ccc1OCC(=O)N1C(C)CCCC1C (centres undefined)	104	nt	-2	14	91	i	0.8
COc1cccc(-n2nnnc2S(C)(=O)=O)c1	103	-3.3	-5	54	130	i	0.55
COc1ccccc1-c1ccc(=O)n(CC(=O)NCc2cccs2)n1	108	nt	-1	-38	146	i	0.95
COc1ccc(N(C(=O)C(C)C)S(=O)(=O)c2ccc(Cl)cc2)cc1	99	-3.3	-3	-3	109	i	1
COc1cccc(/C=C/C(=O)Nc2ccc3nc4n(c(=O)c3c2)CCCC4)c1OC	103	nt	-1	nt	nt	i	0.92
COc1ccc(CNc2nc3nc(-c4ccccc4)cc(=O)n3[nH]2)cc1OC	80	-0.5	-5	44	118	i	0.84
COc1ccccc1-n1c(SCC(=O)N2CCCC2)nc2cccnc21	92	-1.6	2	56	85	i	1
COc1ccc(-c2nc(CS(=O)(=O)CC(=O)Nc3ccc(Cl)cc3)c(C)o2)cc1	80	-0.6	-2	nt	nt	i	0.78
COc1ccc(NC(=O)CN(c2ccc(C)cc2)S(C)(=O)=O)c(OC)c1	97	-1.4	0	-32	137	i	0.98
